eIF4H inh: inhibitors of RNA binding by human eIF4H. Q15056. eIF4H fluorescence polarization binding assay. inhibition, % at 35 µM. actives 0.94% (n = 290,000). AID 2012;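 active = 50% or more with normal probe brightness, or confirmed in later tests; inconclusive = above 50% with abnormal brightness, or retests that disagree; inactive = below 50% or failed in later tests; about a fifth of its hits are not listed in these tables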;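 note: calls also rest on retests at 20 µM and on dose response follow-up; 0% = protein and probe with vehicle and 100% = probe without protein; strong numbers were not always called active; many hits fall short of the cut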
HIV Env fusion: HIV envelope-mediated fusion inhibition | HeLa-JRFL Env/CEM21 cell fusion, luciferase | inhibition, % at 12.3 µM | actives 1.1% (n = 360,000);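 active = mean replicate inhibition score of at least 50 and every replicate individually at or above 50; inconclusive = only one of the two criteria met; inactive = mean below 50 and not all replicates reaching 50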;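 note: 0% = plate neutral controls and 100% = maraviroc near 300 nM; one replicate is shown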
MT1-MMP act inh: inhibitors of human MT1-MMP activation; AID 651647; GFP/RFP ratio change, % at 20 µM; actives 0.061% (n = 360,000); P50281; HT1080 RFP-PRO-GFP cells, GFP/RFP ratio fluorescence, overnight; percent of plate control window, DMSO zero;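 active = GFP/RFP ratio change of at least 30% with cell ATP level not reduced by more than half and red fluorescence within 50% of control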; note: strong numbers were not always called active
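Test system: HT1080 RFP-PRO-GFP cells; Benchmarks: DMSO and RFP-L50D-GFP cell wells; Timing: cells overnight before dosing, compound overnight, 37 °C, 5% CO2; Compound: one 20 µM compound dose with 1% DMSO; Read-out: GFP/RFP fluorescence ratio.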
Yeast UUG start: yeast start codon fidelity modulation | S. cerevisiae UUG-firefly luciferase reporter, luminescence/redox ratio | activity score, % at 18.7 µM | actives 0.13% (n = 350,000);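 active = replicate mean at a twofold rise or more, about +100% in these data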;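 note: firefly luciferase made from a UUG start codon reports start codon fidelity; reporter light over untreated wells divided by growth signal over untreated wells; some hits fall short of that in this replicate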
Rce1 inhib: blocks yeast Ras-converting enzyme. Q03530. yeast membranes, quenched prenylated peptide cleavage fluorescence. calls only. actives 0.27% (n = 290,000). AID 2563;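 active = fall in fluorescence gain of 50% or more versus controls, with final raw signal at or below 3038400; inconclusive = same 50% fall but final raw signal above 3038400; inactive = fall in fluorescence gain under 50%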;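 note: plate controls were neutral control wells for no effect and wells lacking membranes for full effect; tested at 10 µM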
Target sequence (Q03530 whole entry, looked up): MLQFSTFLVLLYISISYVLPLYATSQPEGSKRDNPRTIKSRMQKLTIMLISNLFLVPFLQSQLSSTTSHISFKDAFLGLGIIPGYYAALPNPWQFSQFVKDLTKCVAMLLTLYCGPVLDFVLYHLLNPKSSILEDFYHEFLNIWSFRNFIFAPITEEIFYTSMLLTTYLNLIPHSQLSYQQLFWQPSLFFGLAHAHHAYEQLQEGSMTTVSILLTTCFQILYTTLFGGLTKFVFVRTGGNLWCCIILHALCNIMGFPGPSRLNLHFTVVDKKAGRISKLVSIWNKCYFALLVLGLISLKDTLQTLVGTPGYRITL
PABP FP inh: blocks human PABP binding to poly(A) RNA; actives 1% (n = 290,000); P11940; AID 2014; inhibition, % at 35 µM; fluorescence polarization;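 active = 50% or more with normal probe brightness, or confirmed in later tests; inconclusive = above 50% with abnormal brightness, or retests that disagree; inactive = below 50% or failed in later tests; about a fifth of its hits are not listed in these tables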;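 note: calls also rest on retests at 20 µM and on dose response follow-up; controls were probe without protein and protein plus probe with vehicle; some compounds called inactive have numbers as strong as hits; many hits fall short of the cut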
CSC inhib: blocks cancer stem cells; cancer stem cell-like cells viability, luminescence; inhibition, % at 7.5 µM; actives 1.1% (n = 300,000); AID 2717;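 active = mean at 75% or more and at least half the replicates too; inconclusive = mean and replicates disagree; tested in HMLE shEcad cells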;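 note: 0% = median of negative and 100% = median of positive control wells; the first replicate is given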
eIF4H inh retest: further read-out of eIF4H inh, marked with its call; inhibition, %; compound at 20 µM; confirmation average;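 mean of two retest wells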
PABP FP inh retest: recorded beside PABP FP inh, whose call it bears; inhibition, %; compound at 20 µM; confirmation repeats;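 mean of two retest wells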
MT1-MMP act inh RFP: further read-out of MT1-MMP act inh, marked with its call; RFP signal change, %; measured here: RFP expression control read;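 0 = vehicle wells; hits needed this value within 50% of zero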
Numbers without * were called inactive; i = inactive; ? = inconclusive; . = no result given.

SMILES	eIF4H inh	HIV Env fusion	MT1-MMP act inh	MT1-MMP act inh RFP	Yeast UUG start	Rce1 inhib	PABP FP inh	CSC inhib	others
CC1CC(C)CN(C(=O)CNC(=O)Cn2ccc3ccccc3c2=O)C1 (stereo unspecified)	-7	0	-1	4	4	i	-10	.
Cc1ccc(S(=O)(=O)n2cnc3cc([N+](=O)[O-])ccc32)c(C)c1	-11	37	-1	4	.	i	30	9
CC(=O)c1cccc(S(=O)(=O)N(C)C2CCN(C)CC2)c1	7	-10	4	4	.	i	-11	-5
COc1ccc(-n2ccn(CC(=O)Nc3ccccc3OC)c(=O)c2=O)cc1	9	3	0	3	-17	i	4	-6
CN1CCN(c2nc3c(c(=O)n(C)c(=O)n3C)n2Cc2ccccc2)CC1	4	-6	.	.	7	i	0	-6
Cc1cc(N)nc(C)c1C#N	2	10	0	3	-12	i	0	-5
CCC(Sc1nnc(-c2ccc(C)c(Cl)c2)n1CC)C(=O)Nc1nccs1 (stereo unspecified)	1	-17	3	-13	-19	.	1	28
CCOC(=O)Cn1cc(C=O)c2ccccc21	-14	16	2	0	-18	i	-5	-21
CC(=O)c1ccc(OC2(C)CCN(Cc3ccc4ccccc4c3)C2)cc1 (stereo unspecified)	.	-5	0	3	-12	.	.	.
O=C(CCCc1ccccc1)NCCN1CCOCC1	2	-60	-5	-6	-21	i	-1	-14
Cn1nc(CC(=O)NCc2ccc(F)cc2)c2ccccc2c1=O	-4	-2	-6	-17	-12	i	7	2
Cc1ccc(NC(=O)C2CCC(CNC(=O)[C@@H]3Cc4ccccc4CN3)CC2)cc1 (stereo partly specified)	2	-4	0	-1	-28	i	8	-10
CCN1C(=O)C2(C(C(=O)c3cc4ccccc4o3)=C(O)C(=O)N2CCCN2CCOCC2)c2ccccc21 (stereo unspecified)	-3	-3	1	1	.	i	11	-9
O=C(Nc1ccc2snnc2c1)N1CCCCC1	-19	10	0	3	.	i	-13	6
CCNC(=S)Nc1cc(C(=O)N2CCCC2)ccc1N1CCCC1	-5	1	3	4	-29	i	4	-7
C[C@@H]1COC(=O)[C@H](NC(=O)OCC2c3ccccc3-c3ccccc32)C/C=C\C[C@@H](CC(=O)N[C@@H](CO)Cc2ccccc2)C(=O)N1	.	-54	5	-3	6	.	.	.
COc1ccc(Cl)cc1NC(=O)CCc1ccccc1	3	17	-2	-2	-3	i	6	.
C=CCn1c(SCC(=O)c2cccs2)nc2sc(CC)cc2c1=O	4	88*	-5	-18	-18	i	3	38
CC(=O)c1ccc(NC(=O)c2cccc(N3C(=O)c4ccccc4C3=O)c2)cc1	20	.	1	-1	-6	i	-26	1
Cc1cc(C)nc(NS(=O)(=O)c2ccc(NC(=O)c3ccc4c(c3)OCO4)cc2)n1	-7	.	2	1	.	i	-4	-1
O=C(COc1ccc(Br)cc1Cl)N1CCN(c2ncccn2)CC1	.	9	-5	-2	5	.	.	.
CCOc1ccc(C2=Nn3c(nnc3-c3ccc(OC)cc3)SC2)cc1	-2	-67	4	-12	-18	i	-10	49
CSc1nc(O)c(C(c2ccc(C)cc2)c2c(O)nc(SC)[nH]c2=O)c(=O)[nH]1	-15	7	-4	0	-7	i	6	0
COc1ccc(CCN=C2SCC(=O)N2C)cc1OC	-4	.	-8	-2	-17	i	-6	-2
COC(=O)CC1=C(C(=O)OC)C(c2ccc3c(c2)OCO3)C(C#N)=C(N)O1 (stereo unspecified)	0	3	-7	2	-11	i	2	10

Random excerpt: 2 entries already listed, in no set order.
SMILES	eIF4H inh	HIV Env fusion	MT1-MMP act inh	MT1-MMP act inh RFP	Yeast UUG start	Rce1 inhib	PABP FP inh	CSC inhib	others
O=C(COc1ccc(Br)cc1Cl)N1CCN(c2ncccn2)CC1	.	9	-5	-2	5	.	.	.
C[C@@H]1COC(=O)[C@H](NC(=O)OCC2c3ccccc3-c3ccccc32)C/C=C\C[C@@H](CC(=O)N[C@@H](CO)Cc2ccccc2)C(=O)N1	.	-54	5	-3	6	.	.	.

Remaining list, next part
SMILES	eIF4H inh	HIV Env fusion	MT1-MMP act inh	MT1-MMP act inh RFP	Yeast UUG start	Rce1 inhib	PABP FP inh	CSC inhib	others
CCOC(=O)c1cccc(NC(=O)CN2C(=O)C3C4C=CC(C4)C3C2=O)c1 (stereo unspecified)	2	19	6	-2	1	i	-2	7
COc1cccc(Cn2c(OCC3CCCO3)nc3c2c(=O)n(C)c(=O)n3C)c1 (stereo unspecified)	3	-2	-1	-1	-6	i	12	-10
CCSc1nnc2c(Cl)cc(Cl)cn12	0	.	5	1	-15	i	12	-4
COc1cc(C(C)=NNC(=O)c2ccncc2)ccc1O	.	5	0	6	-19	.	.	.
Cc1ccc(OCCOC(=O)Cn2nc(C)c([N+](=O)[O-])c2C)cc1	14	4	3	4	-15	i	3	-11
COC(=O)c1c(NC(=S)Nc2ccc(F)cc2[N+](=O)[O-])sc2c1CCCCC2	7	-6	-2	1	-11	i	11	9
Cc1ccccc1N1C(=O)CC1(C#N)c1ccc(OCc2ccccc2)cc1 (stereo unspecified)	-15	.	-9	-14	.	i	3	.
O=C(Nc1cc(S(=O)(=O)N2CCOCC2)ccc1O)c1ccc(S(=O)(=O)N2CCCCC2)cc1	.	.	12	-8	13	.	.	-17
O=C(NCc1ccccc1)C1CCN(c2nc(-c3ccccc3)nc3c2CCC3)CC1	-2	9	1	-4	-10	.	7	-3
Cc1cc2cc(CNC(=O)NC3CCCCC3)ccc2[nH]1	0	7	22	28	-8	i	-1	7
C#CCOCCOCCOCCNc1nc(N2CCN(C(=O)CCCCCCCCCCNC(=O)Cn3cc(C[C@@H](C)O)nn3)CC2)nc(N2CCN(C(=O)CCCCCCCCCCNC(=O)[C@@H](CCSC)n3cc(CCO)nn3)CC2)n1	.	.	-1	0	-11	.	.	74
O=C(CSc1ccc(Cl)cc1)Nc1ccccc1Oc1ccccc1	15	16	-6	-5	-7	i	8	3
CC1(C)NC(=O)N(CC(=O)Nc2cc(C(F)(F)F)cc(C(F)(F)F)c2)C1=O	-13	-11	-3	1	1	i	4	-9
Cc1cc(C)n(C(=O)C(C)N2C(=O)c3ccccc3C2=O)n1 (stereo unspecified)	-4	10	4	3	-3	i	14	-7
COc1cc(NC(=S)NC2CC(C)(C)NC(C)(C)C2)c(OC)cc1Cl	2	2	3	3	.	i	-15	-4
COc1ccccc1CNC(=O)c1ccc(S(=O)(=O)N(C)C)cc1	-6	-17	4	2	-6	i	-9	-8
CCOC(=O)C1CCCN(C(=O)c2sc3nc(-c4ccccc4)cn3c2C)C1 (stereo unspecified)	8	.	0	-4	-10	.	-7	-12
C/C(=N\NC(=O)c1ccco1)c1cc(Cl)sc1Cl	-2	-74	0	2	-3	.	-2	5
O=C(NC(=S)Nc1ccccc1N1CCCCC1)c1ccccc1	-1	-20	.	.	-18	i	-9	22
Cc1c([N+](=O)[O-])cc(S(=O)(=O)Nc2ccncc2)cc1[N+](=O)[O-]	6	-1	0	-1	-10	i	-2	-6
CCN(CC)C(=O)c1nn(Cc2ccccc2)c(=O)c2ccccc12	13	3	-2	2	-6	i	8	.
COc1ccc(/C=N/n2c(N)c(S(=O)(=O)c3cccs3)c3nc4ccccc4nc32)cc1OC	-5	-11	-2	-5	5	i	3	-10
O=C(O)c1nn(-c2ccccc2)nc1-c1nn(-c2ccccc2)nc1C(=O)O	0	-3	1	5	-6	i	7	-5
CSc1ccccc1NC(=O)CN(Cc1ccccc1)S(C)(=O)=O	1	13	-1	-3	-25	i	-3	-16
COc1ccc(-c2oc3ccc(-c4cc(OC)c(OC)c(OC)c4)cc3c2-c2ccc(OC)cc2)cc1	.	8	.	.	.	i	.	15

Reprinted from the part before: 7 entries, then new ones.
SMILES	eIF4H inh	HIV Env fusion	MT1-MMP act inh	MT1-MMP act inh RFP	Yeast UUG start	Rce1 inhib	PABP FP inh	CSC inhib	others
O=C(NC(=S)Nc1ccccc1N1CCCCC1)c1ccccc1	-1	-20	.	.	-18	i	-9	22
Cc1c([N+](=O)[O-])cc(S(=O)(=O)Nc2ccncc2)cc1[N+](=O)[O-]	6	-1	0	-1	-10	i	-2	-6
CCN(CC)C(=O)c1nn(Cc2ccccc2)c(=O)c2ccccc12	13	3	-2	2	-6	i	8	.
COc1ccc(/C=N/n2c(N)c(S(=O)(=O)c3cccs3)c3nc4ccccc4nc32)cc1OC	-5	-11	-2	-5	5	i	3	-10
O=C(O)c1nn(-c2ccccc2)nc1-c1nn(-c2ccccc2)nc1C(=O)O	0	-3	1	5	-6	i	7	-5
CSc1ccccc1NC(=O)CN(Cc1ccccc1)S(C)(=O)=O	1	13	-1	-3	-25	i	-3	-16
COc1ccc(-c2oc3ccc(-c4cc(OC)c(OC)c(OC)c4)cc3c2-c2ccc(OC)cc2)cc1	.	8	.	.	.	i	.	15
Cc1ccc(CNC(=O)COC(=O)CCCOc2ccc(Cl)cc2Cl)cc1	6	10	-7	1	-9	i	9	4
COCCNC(=S)NCCc1ccc(Cl)cc1Cl	-5	-13	2	2	.	i	?	-3
O=C(Nc1ccccc1C(=O)Nc1nnc(C(F)(F)F)s1)c1ccccc1Cl	3	18	-20	-37	.	i	3	95*
C=CCSC1=C(C#N)C(c2ccccc2OC)CC(=O)N1 (stereo unspecified)	-8	.	-3	-2	-9	i	4	-8
COc1ccc(C(=O)NN2C(=S)N(c3ccc(OC)cc3)C(=O)C2CC(N)=O)cc1 (stereo unspecified)	15	6	2	1	.	i	-1	-8
CCOC(=O)NC(CC(=O)O)c1ccc(OCC)cc1 (stereo unspecified)	-3	-70	-1	1	-18	i	8	2
COc1ccc(-c2oc3cccnc3c2C#CC2(O)CCCCC2)cc1	14	-15	3	-16	-19	?	11	36
CC1C2(C)OC(=N)C(C#N)(C(C)O2)C1(C#N)C#N (stereo unspecified)	48	.	-4	38	.	i	18	-7
CC(C)NC(=O)N(C)C[C@@H]1Oc2c(NC(=O)C3CCOCC3)cccc2C(=O)N([C@@H](C)CO)C[C@H]1C	.	.	2	4	-33	.	.	-24
CC1(C)CC(=O)c2sc(NS(C)(=O)=O)nc2C1	-3	11	4	7	-9	i	4	-6
O=S(=O)(Nc1ccc(O)c2ccccc12)c1ccc(F)cc1	.	2	4	5	-12	i	.	28
O=C(CCCOc1ccc(Br)cc1)NCCc1ccc(OC(F)F)cc1	-1	-8	2	0	-17	.	-3	-5
CC1CN(C(=O)C(C)N2CCN(c3ccccc3Cl)CC2)CC(C)O1 (stereo unspecified)	-1	10	-1	2	.	i	59	-10	eIF4H inh retest=-12;PABP FP inh retest=27
CN(CC(=O)Nc1ccc2c(c1)OCO2)S(=O)(=O)c1ccc2c(c1)CCC(=O)N2	-5	9	12	3	-13	i	-5	0

Screens (PubChem BioAssay)

A portion of the library (hit frequency here may not be typical).
